Screens: PubChem BioAssay, National Center for Advancing Translational Sciences (NCATS)
NS1 inh: influenza NS1 inhibition. actives 0.4% (n = 270,000). S. cerevisiae slowed by influenza A NS1, growth recovery by OD600. Potency, µM (highest dose often 46.1 µM), without a hit: at the highest dose activity, positive = more growth. AID 2326; active means well fitted rising curve with a large enough effect; inconclusive means small, poorly fitted or top-dose-only effect; inactive means no such curve, though single readings can be large or run the other way; note: nearly all actives have a fitted effect of over 50% in size
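Recovery from NS1-induced slow growth read by OD600 in budding yeast switched to galactose assay medium (pH 6.0, -URA) at 1:100 dilution. Compound 23 nl per well; the matching strain lacking NS1 serves as control.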
Cruzain inh noDet: blocks cruzain activity in detergent-free assay. P25779. purified cruzain, Z-FR-AMC fluorescence, no detergent. Potency, µM, inactives show max response, negative = inhibition, actives largely listed as inhibitors. actives 2.3% (n = 200,000). AID 1476;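 note: plate controls were enzyme without inhibitor for no effect and buffer without enzyme for full effect; nearly all actives have a fitted effect of over 40% in size; top concentration of the series not given in the record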
Target sequence (P25779 123-467 limits assumed): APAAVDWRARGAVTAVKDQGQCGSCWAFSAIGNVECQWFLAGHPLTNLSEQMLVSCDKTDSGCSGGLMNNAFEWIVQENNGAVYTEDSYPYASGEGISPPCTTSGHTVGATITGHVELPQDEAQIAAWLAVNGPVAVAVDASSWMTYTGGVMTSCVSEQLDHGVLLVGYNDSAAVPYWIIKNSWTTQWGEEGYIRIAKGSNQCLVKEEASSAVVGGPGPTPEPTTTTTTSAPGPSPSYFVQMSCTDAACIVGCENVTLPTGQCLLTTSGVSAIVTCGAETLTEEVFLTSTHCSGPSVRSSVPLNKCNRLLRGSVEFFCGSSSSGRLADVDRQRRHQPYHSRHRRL
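Purified cruzain at 1.5 nM, pre-incubated 15 min with compound at room temperature in 100 mM sodium acetate pH 5.5, 5 mM DTT, 0.00005% Triton X-100. Reaction started with 2 uM Z-FR-AMC; AMC fluorescence increase over 60 s gives rate.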
RE007 growth inh: less growth of the S. pombe RE007 Vpr strain; actives 0.21% (n = 360,000); AID 651644; Potency, µM (titrated, usually from 92.2 µM), for the others: at the highest dose activity change, negative = less growth; S. pombe RE007 Vpr strain, BacTiter-Glo ATP luminescence, 24 h; control for the full effect not named in the record; active = well fitted falling curve with a large enough effect; inconclusive = small, poorly fitted or top-dose-only effect; inactive = no such curve, though single readings can be large or run the other way;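 note: % is set by controls: 0 for no effect and ±100 for the full control effect; nearly all actives have a fitted effect of over 50% in size; the assay follows cell death caused by Vpr and the record does not say whether a fall means rescue or toxicity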
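Fission yeast strain RE007, carrying one chromosomally integrated HIV-1 vpr copy, was seeded at OD 0.01 in PMG+AL medium with 23 nL pinned compound. After 24 h at 30 °C and 99% humidity, viability was read by BacTiter-Glo luminescence.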
SARS PLP yeast: inhibitors of SARS-CoV papain-like protease in yeast. S. cerevisiae expressing SARS-CoV PLpro, growth rescue; control for the full effect not named in the record. Potency, µM (highest dose often 32.9 µM), for inactives: top-dose activity, positive = growth rescue. actives 0.19% (n = 330,000). AID 485353; active means well fitted rising curve with a large enough effect; inconclusive means small, poorly fitted or top-dose-only effect; inactive means no such curve, though single readings can be large or run the other way; note: 0% is about no effect; nearly all actives have a fitted effect of over 55% in size; growth read by luminescence after 48 h
Cruzain Triton: blocks cruzain activity in presence of Triton detergent; P25779; purified cruzain, Z-FR-AMC fluorescence, 0.01% Triton; Potency, µM, for inactives: max response, negative = inhibition, hits mostly inhibitors; actives 0.43% (n = 200,000); AID 1478;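 note: plate controls were neutral wells for no effect and buffer without enzyme for full effect; nearly all actives have a fitted effect of over 40% in size; top concentration of the series not given in the record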
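Steps: dispense cruzain (1.5 nM final) in acetate buffer pH 5.5 with DTT and 0.01% Triton X-100; pin-transfer compounds; incubate 15 min RT; add Z-FR-AMC (2 uM final); read fluorescence every 30 s, using the 60 s intensity change.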
LASV entry inh: Lassa virus entry inhibition; Lassa virus pseudotype entry inhibition, cell reporter; control for the full effect not named in the record; Potency, µM (titrated, usually from 37.9 µM), without a hit: top-dose activity change, negative = inhibition, most hits filed as inhibitors; actives 1.2% (n = 300,000); active means well fitted inhibition curve with a large enough effect; inconclusive means small, poorly fitted or top-dose-only effect, or effect the other way; inactive means flat fitted curve, though single readings scatter; tested in HEK293 cells; note: % is set by controls: 0 for no effect and ±100 for the full control effect; nearly all actives have a fitted effect of over 50% in size; luciferase read-out
StopGo reporter: lowers the luciferase signal of an FMDV 2A StopGo reporter | human cells with a luciferase reporter of 2A StopGo recoding; control for the full effect not named in the record | Potency, µM (highest dose often 57.9 µM), for inactives: at the highest dose signal change, negative = less light | actives 1.2% (n = 410,000); active = well fitted falling curve with a large enough effect; inconclusive = small, poorly fitted or top-dose-only effect; inactive = no such curve, though single readings can be large or run the other way; tested in HEK293T cells; note: % is set by controls: 0 for no effect and ±100 for the full control effect; nearly all actives have a fitted effect of over 45% in size; luciferase light after 4 h
MARV entry inh: blocks Marburg virus binding to or entry into cells; Marburg virus pseudotyped entry inhibition, cell reporter; control for the full effect not named in the record; about a third of the inactives were read at about 46 µM; Potency, µM (doses to about 37.8 µM), for the others: at the highest dose activity change, negative = inhibition, hits mostly inhibitors; actives 1.8% (n = 300,000); AID 540276; active = well fitted inhibition curve with a large enough effect; inconclusive = small, poorly fitted or top-dose-only effect, or effect the other way; inactive = flat fitted curve, though single readings scatter; tested in HEK293 cells; about a fifth of its hits are not listed in these tables; note: % is set by controls: 0 for no effect and ±100 for the full control effect; luciferase read-out
Active calls of the source: *; ? = inconclusive; · = no result given; [ ] = another dose, or the depositor's remark. Unless noted, calls come from the whole dose curve; as a rule, active = well fitted curve in the direction sought with a large enough effect; inconclusive = small, poorly fitted or top-dose-only effect, or another doubt; inactive = no such curve, though single readings can be large; an effect the other way counts as inactive or inconclusive. Potency is the fitted concentration of half-maximal effect.

SMILES	NS1 inh	Cruzain inh noDet	RE007 growth inh	SARS PLP yeast	Cruzain Triton	LASV entry inh	StopGo reporter	MARV entry inh
CN1/C(=C\C(=O)COC(=O)CN2C(=O)C3CC=CCC3C2=O)C(C)(C)c2ccccc21 (stereo unspecified)	-11%	9%	1%	-1%	-8.2%	?	?	-1%
COc1cc(C2CC(=O)Oc3c(C(CCN4CCOCC4)c4ccc(N(C)C)cc4)c(OC)cc(OC)c32)cc(OC)c1OC (stereo unspecified)	-56%	·	-7%	1%	·	·	-8%	·
CCCN(CCC)Cc1c(C(=O)N/N=C/c2c[nH]c3ccccc23)nnn1-c1nonc1N	-16%	·	-12%	-3%	·	-15%[46.1 µM]	41%[activator]	?
O=C(NC(=S)Nc1ccc(Cl)c(C(=O)O)c1)c1ccc(OCc2ccccc2)cc1	25%	·	4%	2%	·	·	-3%	·
COC(=O)/C(=N/Nc1ccccc1Cl)Sc1nnc(C(O)c2ccccc2)n1-c1ccccc1 (stereo unspecified)	17%	8%	-7%	0%	-17%	4%	0%	-4%[46.1 µM]
O=c1c2ccccc2c(-c2ccccc2)nn1-c1ccccc1	-1%	·	4%	0%	·	-2%	-24%	0%
CC1CC(C)(C)CC2(C1)NC(=O)N(CC(=O)NC1CCCc3ccccc31)C2=O (stereo unspecified)	25%	12%	6%	-5%	0.8%	2%	?	?
Cc1nc(C)n(CCNS(=O)(=O)c2ccccc2)n1	-26%	·	-19%	0%	·	-12%[46.1 µM]	-9%	-4%[46.1 µM]
Cc1ccc(S(=O)(=O)c2cc3c(=O)n4cccc(C)c4nc3n(Cc3ccncc3)c2=N)cc1	-4%	·	-7%	-1%	·	·	-20%	·
COc1cccc(Nc2nc3ccccc3c(=O)[nH]2)c1	·	·	0%	2%	·	4%	-13%	-4%[46.1 µM]
Cc1nn2c(=O)cc(COC(=O)c3ccccc3NC(=O)C3CCCCC3)nc2s1	·	19%	·	·	0.7%	12%[46.1 µM]	-8%	·
Cc1oc(-c2ccoc2)nc1CN(Cc1ccccc1)CC1CC1	3%	·	-1%	-1%	·	·	8%	·
CCN(CC)CC(=O)Nc1ccc(Cl)cc1C(=O)c1ccccc1	·	·	-10%	·	·	1%	11%	?
CC1=C(C(=O)NCc2ccc(C)cc2)C2(CCCCC2)OC1=O	·	-17%	·	·	0.7%	-7%[46.1 µM]	-6%	·
Cc1onc(-c2c(Cl)cccc2Cl)c1NC(=O)NNc1ccccc1	-1%	·	15%	0%	·	·	-16%	·
COc1cccc(CC2(CO)CCN(Cc3cnc(N4CCOCC4)s3)CC2)c1	0%	·	7%	0%	·	14%[46.1 µM]	?	?
CCc1nnc(NC(=O)c2sc3nc4cc(C)ccc4cc3c2N)s1	3%	?	4%	-1%	-3.7%	-1%	24%	?
COCc1ccc(C(=O)NC2CCSc3ccccc32)cc1 (stereo unspecified)	6%	·	2%	0%	·	-1%	38%[activator]	4%[46.1 µM]
CCOc1ncccc1C(=O)Nc1ccc(OC)c(S(=O)(=O)N2CCOCC2)c1	·	·	-14%	-5%	·	-14%	-24%	-6%
CN(CCNC(=O)CCCOc1cc(=O)n(C)c2ccccc12)Cc1ccccc1	·	·	-5%	0%	·	0%	1%	17%
CCOC(=O)C(Cc1cc(C(C)=O)ccc1OCC)C(=O)OCC	2%	-18%	20%	-6%	1.1%	-1%	?	-2%[46.1 µM]
COc1ccc(S(=O)(=O)N2CCN(C(=O)CC(C)C)CC2)cc1	-16%	·	8%	3%	·	-22%	-22%	1%
CCOc1ccc2oc(C(=O)OCC(=O)N(CC(C)C)c3c(N)n(Cc4ccccc4)c(=O)[nH]c3=O)c(C)c2c1	·	·	30%	·	·	-23%	-6%	?
COc1cccc(-n2c(=O)c3c(C)c(C)sc3n(Cc3ccccc3C#N)c2=O)c1	·	-3%	·	·	0.7%	1%[46.1 µM]	1%	-8%[46.1 µM]
CC(=O)c1ccc(NC(=O)c2ccccc2-c2ccccc2C(=O)O)cc1	19%	·	3%	6%	·	-14%[46.1 µM]	-14%	1%[46.1 µM]
Cc1ccc(C(=O)Nc2ccc3[nH]c(=O)c(=O)[nH]c3c2)cc1	·	3%	·	·	-6.6%	18%[46.1 µM]	8%	-2%[46.1 µM]
Cc1ccc(CN2CCSc3ccc(C(=O)N4CCN(c5ccc(Cl)cc5)CC4)cc32)cc1	·	?	·	·	-1.7%	7%[46.1 µM]	6%	-1%[46.1 µM]
CCOC(=O)C1CCN(C(=O)c2c(C)nn(-c3ccc(F)cc3)c2-n2cccc2)CC1	·	?	·	·	-2.7%	18%[46.1 µM]	-9%	·
O=C(NCCS(=O)(=O)NCc1ccccc1Cl)c1ccc2c(c1)OCO2	·	·	-4%	1%	·	-3%	22%	-3%[46.1 µM]
CCOC(=O)CSc1nc(N)c(C#N)c(-c2cccs2)c1C#N	8%	0%	-8%	-10%	-0.9%	25%	?	?
COc1ccc(/C=C2/C(=O)N(CC3CCCO3)C(=S)N2C)c(OC)c1 (stereo unspecified)	-6%	10%	4%	5%	-1.3%	?	·	-1%
CCn1cnc2c1c(=O)n(CC(=O)OC)c(=O)n2Cc1ccccc1	1%	·	5%	0%	·	·	-16%	·
CCOC(=O)C1CCN(C(=O)/C=C/c2ccc(OC)cc2)CC1	-5%	5%	13%	3%	-4.9%	?	31%[activator]	3%
O=c1c2ccccc2nc(-c2cccc(Cl)c2)n1O	-93%	-14%	?	-25%	-1.3%	-19%	·	-3%
C=CCN(CC=C)c1ccc(N2C(=O)C3CCCCC3C2=O)cc1[N+](=O)[O-] (stereo unspecified)	·	·	15%	-3%	·	-15%[46.1 µM]	?	2%[46.1 µM]
CCC(=O)Nc1ccc(NCc2ccc(-c3ccccc3)cc2)cc1	-12%	·	1%	-7%	·	-30%	-9%	-10%
COc1ccc(-n2c(=O)c3ccccc3n(Cc3ccccc3C)c2=O)c(OC)c1	·	2%	·	·	-2.9%	-8%[46.1 µM]	-17%	-1%[46.1 µM]
Cc1cc2ccccc2n1CCNC(=O)c1ccc(S(=O)(=O)N2CCCCC2)cc1	11µM*	?	-6%	6%	0.6%	·	-14%	-5%
COc1ccccc1-n1cnnc1SCC(=O)N1CC(=O)Nc2ccccc21	2%	7%	6%	?	0.5%	5%	-7%	4%
CCCCC(CC)CNC(=O)CN(C)S(=O)(=O)c1ccc2c(c1)c(=O)n(C)c(=O)n2C (stereo unspecified)	·	8%	·	·	1.7%	-10%[46.1 µM]	-8%	22%[46.1 µM]
O=C(/C=C/c1cccc(F)c1)Nc1ccc(S(=O)(=O)Nc2ncccn2)cc1	0%	·	0%	0%	·	-25%	-1%	-2%[46.1 µM]
CCCCCCC(=O)N/N=C(\C)Cc1ccccc1	-7%	18%	10%	3%	1.1%	-11%	-14%	1%
NC(=O)c1ccsc1NC(=O)COC(=O)CNC(=O)c1ccc(Cl)cc1	·	·	-13%	-3%	·	7%	-17%	7%
CC(C)c1ccc(NC(=O)[C@@H](C)NC(=O)[C@@H]2Cc3ccccc3CN2)cc1	-4%	·	-1%	?	·	21%[46.1 µM]	-1%	0%[46.1 µM]
COCCNC(=O)C(c1ccc(C)cc1)N(C(=O)CCC(=O)Nc1ccccn1)c1ccc(F)cc1 (stereo unspecified)	-1%	·	-20%	-1%	·	?	-12%	?
O=C(Nc1ccc2nc(SCC(=O)N3CCCC3)sc2c1)c1ccccc1F	·	-8%	·	·	-3.5%	12%[46.1 µM]	0%	?
O=C(COC(=O)c1c[nH]c2ccccc12)Nc1ccccc1	·	·	-17%	3%	·	8%	-7%	-14%
CCN(CC)c1ccc(CNc2nc3ccccc3n2CC)cc1	-51%	·	-17%	-1%	·	9%	-16%	?
NS(=O)(=O)c1ccc(NC(=O)COC(=O)c2cc(Cl)ccc2[N+](=O)[O-])cc1	0%	·	1%	0%	·	?	-25%	1%[46.1 µM]
Nc1nccnc1C(=O)OCC(=O)c1ccc[nH]1	·	·	10%	-2%	·	13%	3%	1%
Cc1occc1C(=O)NCc1cccc(CNC(=O)c2ccoc2C)c1	-8%[9.22 µM]	-8%	-6%	-8%	-7.0%	22%	22%	8%
Cc1cc(C)c2c(=N)c3ccccc3n(CCCCCCCCn3c4ccccc4c(=N)c4c(C)cc(C)nc43)c2n1	·	·	1%	·	·	?	0%	7.1µM*
COC(=O)c1ccc(CNC(=O)C(C)N=C2NS(=O)(=O)c3ccccc32)cc1 (stereo unspecified)	·	·	-11%	2%	·	-13%[46.1 µM]	5%	4%
COc1ccc(OC)c(CCNC(=O)C2CCN(c3nnc(-n4cccc4)s3)CC2)c1	-37%	-13%	0%	-4%	-3.2%	·	-14%	·
O=C(NCCc1ccc(Cl)cc1)C(=O)NCC(c1ccc2c(c1)OCO2)N1CCOCC1 (stereo unspecified)	·	18%	·	·	0.4%	?	-26%	·
COc1ccc(C(=O)N(CCCO)Cc2cc3c(C)ccc(C)c3[nH]c2=O)cc1OC	0%	1%	24%	7%	0.7%	-7%	9%	1%
Cc1nn(S(=O)(=O)c2ccc(F)cc2)c(C)c1S(=O)(=O)N1CCCCCC1	·	5%	·	·	0.2%	13%[46.1 µM]	8%	·
Nc1ncnc2nc(Sc3ccc(Cl)cc3)[nH]c12	0%	-9%	-10%	1%	-0.3%	?	-19%	-3%
Cc1nn(C(=O)c2cccc(F)c2)c(C)c1S(=O)(=O)N1CCOCC1	·	11%	·	·	-0.4%	-1%[46.1 µM]	0%	·
CSc1ccc(CN2CCN(S(=O)(=O)Cc3ccccc3)CC2)cc1	-33%	·	-20%	-3%	·	-2%	?	-10%
CC(=O)Nc1ccc(N(C(=O)c2ccco2)C(C(=O)NC2CCCC2)c2ccncc2)cc1 (stereo unspecified)	6%	·	-14%	-5%	·	1%	11%	19%[46.1 µM]
Cn1c(C(=O)OCC(=O)NCCc2ccccc2)cc2sccc21	-12%	-3%	-8%	-3%	6.9%	7%	·	0%
Cc1ccc(NC(=O)CN2C(=O)C(c3ccc(C)cc3)=NC23CCCCCC3)cc1	·	?	·	·	-8.0%	?	-13%	?
